# From PubChem
# TRPV1 PAM: enhances activation of the human vanilloid receptor TRPV1 | TRPV1-expressing cells, Fluo-8 calcium influx, capsaicin EC20 potentiation; host cell line not named in the record; control for the full effect not named in the record | AID 540277 | 320,000 tested, 0.02% active | potentiation, % at 8.33 µM; active means potentiation above 80%; inconclusive means 30% to 80%; inactive means below 30%; note: 0% is about no effect
#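 TRPV1-expressing cells were cultured overnight at 35.5C and loaded with Fluo-8 calcium dye for 40 to 90 min at room temperature. After a 10 s baseline, compound was added and calcium influx was read kinetically for 3 min (ex 480/em 520 nm).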
# gsp agonist: gsp mutant agonism; 340,000 tested, 0.13% active; Potency, µM (top dose mostly 76.9 µM), inactives show top-dose activation (cAMP increase), hits mostly activators; gsp mutant cells, cAMP HTRF, 30 min; control for the full effect not named in the record; active = well fitted activation curve with a large enough effect; inconclusive = small, poorly fitted or top-dose-only effect, or another doubt; inactive = no such curve, though single readings can be large or run the other way; cell line not stated here;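 note: phosphodiesterase inhibitor Ro 20-1724 added with compounds to block cAMP breakdown; potency is the fitted concentration of half-maximal effect; nearly all actives have a fitted effect of over 60% in size; about a fifth of the inactives were tested at one dose only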
#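 Cells stably selected in G418 were plated at 2000/well, grown 16-24 hr, then given compounds in DMSO with the PDE inhibitor […] (300 uM solution added) for 30 min at 37C; cAMP was read by HTRF.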
# TRPML1 inh: blocks the human TRPML1 channel | Q9GZU1 | TRPML1-inducible cells, Ca2+ dye fluorescence, FDSS; hits give low values; inhibition of EC80 agonist-evoked calcium signal | activity change, negative = inhibition, % (concentration not given with the values) | 390,000 tested, 0.02% active; in the data active means activity change below about -50%; inconclusive means about -30% to -50%; inactive means above about -30%;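 note: stimulus is agonist 54-4 at its EC80 concentration; % is set by controls: 0 for no effect and ±100 for the full control effect; compound concentration not given in the record; the text of the record puts the active cut at -80%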
# Target sequence (Q9GZU1 whole entry, looked up): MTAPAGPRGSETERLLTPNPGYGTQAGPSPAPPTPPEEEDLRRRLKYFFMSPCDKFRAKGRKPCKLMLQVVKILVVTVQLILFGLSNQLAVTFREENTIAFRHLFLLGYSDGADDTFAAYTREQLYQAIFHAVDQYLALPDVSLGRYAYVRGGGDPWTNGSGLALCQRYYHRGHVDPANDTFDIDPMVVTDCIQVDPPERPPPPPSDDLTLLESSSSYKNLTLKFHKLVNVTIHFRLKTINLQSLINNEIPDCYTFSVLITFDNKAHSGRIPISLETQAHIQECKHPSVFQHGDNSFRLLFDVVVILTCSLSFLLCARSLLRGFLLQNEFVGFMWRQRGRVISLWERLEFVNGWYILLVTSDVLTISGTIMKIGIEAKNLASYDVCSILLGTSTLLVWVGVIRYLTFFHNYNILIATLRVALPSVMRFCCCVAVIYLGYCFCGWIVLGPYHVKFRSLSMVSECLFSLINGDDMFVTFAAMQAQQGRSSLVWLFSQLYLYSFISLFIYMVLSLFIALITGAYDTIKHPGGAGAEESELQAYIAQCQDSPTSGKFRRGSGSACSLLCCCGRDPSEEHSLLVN
#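 TRPML1-DL cells, Tet-induced overnight (~16 h, 37 °C) at 1,500 cells/well, were loaded with Ca8 no-wash dye plus quencher for 45-90 min at room temperature. Compounds were pinned during FDSS kinetic reading; agonist 54-4 at EC80 (4 uM final) then added.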
# gsp antagonist: antagonists of gsp mutant (McCune-Albright syndrome); gsp-mutant cells, cAMP HTRF, 30 min; control for the full effect not named in the record; Potency, µM (top dose mostly 76.9 µM), for the others: at the highest dose activity change, negative = inhibition, most hits filed as inhibitors; 340,000 tested, 0.4% active; AID 624288; active = falling curve of any shape with a large fitted effect; inconclusive = falling curve, mostly with a smaller effect; inactive = flat or rising curve; cell line not stated here;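 note: intracellular cAMP measured with PDE inhibitor Ro 20-1724 present during compound exposure; potency is the fitted concentration of half-maximal effect; % is set by controls: 0 for no effect and ±100 for the full control effect; nearly all actives have a fitted effect of over 65% in size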
#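 G418-selected cells were plated in DMEM/10% FBS for 16-24 h at 37C, then treated with compounds plus the PDE inhibitor […] (300 uM solution added) for 30 min at 37C. Intracellular cAMP was measured by HTRF after 30 min lysis at room temperature.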
# Menin-MLL FL inh: menin-MLL binding inhibition, fluorescein peptide. Fluorescence polarization, fluorescein-MLL peptide displacement from menin. FP activity change, % at 61.4 µM. 290,000 tested, under 10 active. AID 1766; inconclusive = falling polarisation curve, or a change in total fluorescence; inactive = total fluorescence flat and polarisation flat or rising; no compound was filed as active; the % refers to the polarisation; negative = inhibition;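 note: % of control where 0% means no effect; inhibitors lower the polarisation; unlabelled MLL peptide was the positive control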
# ClpP mod: qHTS Assay for Activators of ClpP. purified B. subtilis ClpP, FRET peptide cleavage, 20 min. Potency, µM (series often up to 57.5 µM), for the others: at the highest dose activity change, negative = active. 340,000 tested, 1.9% active; active = well fitted falling curve with a large enough effect; inconclusive = small, poorly fitted or top-dose-only effect; inactive = no such curve, though single readings can be large or run the other way; note: potency is the fitted concentration of half-maximal effect; the source files actives as falling curves though it sought activators and does not explain the sign; nearly all actives have a fitted effect of over 65% in size; many hits overshoot -100%
# Target sequence (P80244 whole entry, looked up): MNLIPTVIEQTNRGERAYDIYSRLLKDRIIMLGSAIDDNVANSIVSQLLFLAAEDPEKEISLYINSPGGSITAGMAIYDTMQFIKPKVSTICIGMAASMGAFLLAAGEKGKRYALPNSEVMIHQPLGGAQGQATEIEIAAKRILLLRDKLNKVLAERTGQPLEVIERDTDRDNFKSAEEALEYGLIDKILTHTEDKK
#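 Buffer: 100 mM Tris/HCl pH8, 100 mM KCl, 0.05% low protease BSA, 2.5% glycerol, 0.01% Tween-20. ClpP 10 microg/mL final; 20 min RT; delta FRET normalized to ADEP and DMSO controls.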
# Sfp inh: Sfp phosphopantetheinyl transferase inhibition. 310,000 tested, 3.5% active. Potency, µM, inactives show max response, negative = inhibition, usual class: inhibitors. Biochemical Sfp PPTase activity, qHTS. Q9F4F7; active = well fitted inhibition curve with a large enough effect; inconclusive = small, poorly fitted or top-dose-only effect, or another doubt; inactive = no such curve, though single readings can be large or run the other way;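 note: the enzyme is Sfp with the accession as filed and its product quenches rhodamine fluorescence; potency is the fitted concentration of half-maximal effect; 0% = enzyme reaction without inhibitor and -100% = no enzyme wells; top concentration of the series not given in the record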
#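 With Hepes-Na pH 7.6 buffer containing 10 mM MgCl2, Sfp (15 nM) modified BHQ-2-YbbR (12.5 uM) using rhodamine-CoA (5 uM). Two reads 30 minutes apart at 525/598 nm yielded each well's rate.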
# The depositor's hits bear a star; ? = inconclusive; . = not tested or not shown; & = joins results of further samples; [ ] = dose if it differs, or a comment.
1: Cc1cccnc1NC(=O)CCc1c[nH]c2ccccc12
2: OC1CNCc2cc3c(cc21)OCCO3 (stereo not given)
3: COc1ccc(CCNC(=O)c2cc(-c3ccccc3O)n[nH]2)cc1OC
4: Cc1nn(C(=O)c2nn(C)cc2[N+](=O)[O-])c(C)c1Br
5: CC(C)(C)c1ccc(NC(=O)COc2ccc(-n3ccnc3)cc2)cc1
6: O=C(Nc1ccc(OC(F)F)cc1)Nc1cccc(C(F)(F)F)c1
7: CCN1CCN(CCCNC(=O)CNC(=O)c2nn(-c3ccc(OC)cc3OC)c(=O)c3ccccc23)CC1
8: Cc1cn2c(nc(=O)c3cccnc32)s1
Screen / compound no.	1	2	3	4	5	6	7	8
TRPV1 PAM	-21	18	6	0	-15	-9	-3	26
gsp agonist	-42%[inhibitor]	.	-1%	12%[15.4 µM]	-4%	12%	?	?
TRPML1 inh	-9	.	-3	11	22	21	-7	-24
gsp antagonist	-4%	.	3%	0%	-20%	-26%	12%	11%
Menin-MLL FL inh	.	1.3	-0.4	-7.8	-1.1	1.6	-2.0	-0.1
ClpP mod	-8.2%	.	0.8%	-2.3%	-1.8%	0.3%	.	16µM*
Sfp inh	15%	11%	4%	18%	12%	-5%	12%	2%

9: CCOC(=O)Cc1[nH]nc2c1C(c1cccc(OC)c1OC)C(C#N)=C(N)O2 (stereo not given)
10: CC(=O)c1ccc(NC(=O)CN2C(=O)NC(C)(C3CCCCC3)C2=O)cc1 (stereo not given)
11: COc1ccc(C(=O)Nc2ccncc2)cc1S(=O)(=O)N1CCOCC1
12: CN(C)c1ccc(-c2noc(C3CCN(S(=O)(=O)c4ccc(C(=O)O)cc4)CC3)n2)cc1
13: O=C(Cc1ccc(F)cc1)N/N=C/c1ccccn1
14: CCC(C)(C(=O)NC1CCCCC1)N(Cc1cccs1)C(=O)Cc1cccs1 (stereo not given)
15: COc1ccc(OC(=O)COc2cc(C)ccc2C)cc1
16: O=C(Nc1ccccn1)C1(c2cccs2)CCOCC1
Screen / compound no.	9	10	11	12	13	14	15	16
TRPV1 PAM	2	-2	-9	.	9	-6	-6	5
gsp agonist	-1%	17%	26%	23%	-29%	21%	?	0%
TRPML1 inh	-5	4	2	-16	15	13	-7	-12
gsp antagonist	10%	5%	6%	-27%	14%	-6%	1%	-9%
Menin-MLL FL inh	0.8	.	.	.	3.0	1.3	0.4	6.5
ClpP mod	-4.3%	-1.7%	-8.1%	-4.8%	-0.2%	3.1%	.	-2.1%
Sfp inh	8%	.	.	.	56µM*	13%	-2%	-15%

# Some entries already given, reduced to gsp agonist.
cpd | SMILES | gsp agonist
15 | COc1ccc(OC(=O)COc2cc(C)ccc2C)cc1 | ?
16 | O=C(Nc1ccccn1)C1(c2cccs2)CCOCC1 | 0%
9 | CCOC(=O)Cc1[nH]nc2c1C(c1cccc(OC)c1OC)C(C#N)=C(N)O2 (stereo not given) | -1%
12 | CN(C)c1ccc(-c2noc(C3CCN(S(=O)(=O)c4ccc(C(=O)O)cc4)CC3)n2)cc1 | 23%
14 | CCC(C)(C(=O)NC1CCCCC1)N(Cc1cccs1)C(=O)Cc1cccs1 (stereo not given) | 21%
10 | CC(=O)c1ccc(NC(=O)CN2C(=O)NC(C)(C3CCCCC3)C2=O)cc1 (stereo not given) | 17%
11 | COc1ccc(C(=O)Nc2ccncc2)cc1S(=O)(=O)N1CCOCC1 | 26%

# The listing continues.
17: CCOc1ccc(C(=O)NCC2CCCN2S(=O)(=O)c2cccs2)cc1 (stereo not given)
18: COC(=O)c1cc(=O)n2c(-c3ccccc3)csc2n1
19: CC1Cc2cc(S(=O)(=O)N3CCC(C(=O)N4CCCCC4)CC3)ccc2N1C(=O)C1CC1 (stereo not given)
20: Cc1ccc(NC(=O)CC2=NC(=O)C(CC(=O)Nc3ccccc3C)S2)cc1 (stereo not given)
21: COc1ccccc1C1/C(=C(\O)c2ccc3c(c2)OCCO3)C(=O)C(=O)N1Cc1cccnc1 (stereo not given)
22: Cc1ccc(-c2csc(NC(=O)C3CSC4(C)CCC(=O)N34)n2)cc1 (stereo not given)
23: Cc1cc(C(=O)COC(=O)c2ccc(O)cc2O)c(C)n1C(C)C
24: CCOC(=O)CSc1nnc(-c2ccccc2)o1
Screen / compound no.	17	18	19	20	21	22	23	24
TRPV1 PAM	-4	4	-4	0	22	3	-17	-2
gsp agonist	-20%	-24%	34%	-1%[15.4 µM]	?	-23%	17%	14%
TRPML1 inh	4	9	-13	-5	8	-10	-1	4
gsp antagonist	-4%	9%	6%	.	10%	7%	?	-18%
Menin-MLL FL inh	.	4.2	0.2	5.2	0.0	.	.	-0.7
ClpP mod	-2.7%	2.4%	-1.3%	.	-3.2%	1.8%	3.7%	-6.9%
Sfp inh	.	4%	20%	16%	4%	.	.	6%

# Molecules listed so far that contain fluorine, in the order listed:
6: O=C(Nc1ccc(OC(F)F)cc1)Nc1cccc(C(F)(F)F)c1
13: O=C(Cc1ccc(F)cc1)N/N=C/c1ccccn1
Screen / compound no.	6	13
TRPV1 PAM	-9	9
gsp agonist	12%	-29%
TRPML1 inh	21	15
gsp antagonist	-26%	14%
Menin-MLL FL inh	1.6	3.0
ClpP mod	0.3%	-0.2%
Sfp inh	-5%	56µM*

# Going on with the list.
25: CC(C(=O)O)n1nc2ccccc2n1 (stereo not given)
26: COc1ccc(NC(=O)Cc2ccc(Cl)cc2Cl)cn1
27: O=C(CCCc1ccccc1)NCCS(=O)(=O)N1CCN(c2ccccc2)CC1
28: CCCCN1C(=O)C(=O)N(CC(=O)Nc2ccc(OC(F)(F)F)cc2)C1=O
29: CCn1c(CSc2nc3ccccc3[nH]2)nc2cc(C(=O)O)ccc21
30: CN1CCN(C(=O)c2cc3sccc3n2CC(=O)c2ccccc2)CC1
31: O=C(c1cc(Br)c(Br)s1)N1CCN(c2ccccn2)CC1
32: CN(C(=O)C1CCN(S(=O)(=O)c2cccs2)CC1)C1CCCCC1
Screen / compound no.	25	26	27	28	29	30	31	32
TRPV1 PAM	2	4	.	.	-1	5	-5	-4
gsp agonist	4%	-31%[inhibitor]	2%	?	-44%[inhibitor]	7%	-36%[inhibitor]	-36%[inhibitor]
TRPML1 inh	0	-21	-10	2	-22	0	9	10
gsp antagonist	2%	8%	.	4%	-4%	9%	-31%	3%
Menin-MLL FL inh	-1.2	-6.8	.	.	-23	1.1	.	3.1
ClpP mod	0.0%	-1.0%	1.3%	.	35µM*	-0.3%	1.0%	-0.9%
Sfp inh	6%	19%	.	.	3%	1%	17%	17%

33: CCOC(=O)N1CCN(C(=O)COC(=O)c2cccc(C)c2[N+](=O)[O-])CC1
34: Nc1nc(SCC(=O)N2N=C3/C(=C/c4ccco4)CCCC3C2c2ccco2)n[nH]1 (stereo not given)
35: O=C(CN1CCN(c2ccccc2F)CC1)NC(=O)NCc1ccco1
36: CC(C)Cc1[nH]c(=O)c(C#N)c2c1COC(C)(C)C2
37: O=C(NCCCN1CCCCC1)c1ccc2c(c1)NC(=O)c1ccccc1S2
38: CCn1c(Oc2ccccc2)nc2c1c(=O)n(C)c(=O)n2C
39: Cc1ccc(C(=O)N2CCCC(N3CCN(c4ccccc4C)CC3)C2)c(=O)[nH]1 (stereo not given)
40: CC(=O)Nc1ccc(SCC(=O)Nc2cc(C(C)(C)C)nn2-c2ccccc2)cc1
Screen / compound no.	33	34	35	36	37	38	39	40
TRPV1 PAM	-7	-3	?	-4	8	-3	18	3
gsp agonist	-37%[inhibitor]	-15%	?	-9%	-5%	-3%[15.4 µM]	-7%	-62%
TRPML1 inh	-5	2	-6	28	8	-2	9	3
gsp antagonist	-3%	-15%	8%	7%	5%	-7%	-14%	-18%
Menin-MLL FL inh	.	3.1	5.0	4.6	-0.5	3.1	-2.3	2.7
ClpP mod	-1.9%	-3.7%	-2.1%	?	-0.4%	1.3%	-3.7%	-1.1%
Sfp inh	.	-12%	?	11%	9%	9%	2%	2%

41: CCN(CC)CCN(C(=O)CCS(=O)(=O)c1ccccc1)c1nc2cc3c(cc2s1)OCO3
42: CC(C)C(NC(=O)c1ccccc1Br)c1ccccc1 (stereo not given)
43: CCN(C(C)=O)c1nnc(CSc2nc3ccccc3s2)s1
44: Cn1nc(C(=O)NCc2ccccc2)c2c1-c1ccccc1S(=O)(=O)C2
45: COc1ccc(OC)c(/C=C2\S/C(=N/NC(=O)c3ccc4ccccc4c3)NC2=O)c1
46: CCOc1ccc(C(=O)Nc2ccccc2NC(C)=O)cc1OCC
47: O=C(COc1ccc(Br)cc1)Nc1ccccc1N1CCCC1
48: O=C(O)c1cc(-c2ccccc2)nc2ccccc12
49: Fc1ccc(C(c2nnnn2Cc2cccs2)N2CCN(C3CCCC3)CC2)cc1 (stereo not given)
50: CCCCNC(=O)CNC(=S)N(CCCN1CCOCC1)Cc1cccs1
51: COc1ccc(O)c(N)c1
Screen / compound no.	41	42	43	44	45	46	47	48	49	50	51
TRPV1 PAM	4	-32	-8	-6	3	-11	-3	-5&-1	-24	10	2
gsp agonist	-19%	?	-23%	-34%[inhibitor]	24%[15.4 µM]	-68%[inhibitor]	-75%[inhibitor]	.	-37%[15.4 µM]	-2%[15.4 µM]	.
TRPML1 inh	-6	6	5	7&11	13	-5	20	2	-3	-3	.
gsp antagonist	-7%	-1%	6%	-19%	4%	0%	-14%	-12%	-4%	-11%	.
Menin-MLL FL inh	-0.3	5.0	3.0	-1.5	?	0.4	2.4	-2.5&1.1&-3.8	-4.4	2.5	?
ClpP mod	-0.5%	.	-0.2%	-7.8%&-5.2%	-0.9%	.	1.6%	-8.0%	0.7%	0.2%	.
Sfp inh	-12%	26%	5%	9%	-26%	-2%	20%	-9%&30%&12%	5%	5%	56µM*
